Compound activity (PubChem BioAssay)
Sa ugtP lethal: growth inhibition of ugtP-null S. aureus, primary screen, RN4220 ugtP deletion, OD600; 16 h; some inactives read as strong as hits; growth inhibition, % (no concentration beside the values); 330,000 tested, 0.54% active;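 active = z-score under -3 and OD600 up to 0.15 on both plates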;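 note: plate controls were untreated wells for no effect and antibiotic for full effect; wells of about 80 µL received 100 nL stock; the first replicate is given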
BJeLR viability: MLPCN primary cell-based screen for lethality selective to Ras in HRASV12 cells; BJeLR (HRASV12) viability, CellTiter-Glo ATP luminescence, 48 h; reference of the scale not given here; inhibition, % (no concentration beside the values); 300,000 tested, 0.17% active;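 active = replicate mean above 50%; inconclusive = above 50% but judged a plate artefact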;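 note: 50 nL library stock added to about 25 µL; numbers are from one replicate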
Sa RN4220 lethal: growth inhibition of S. aureus RN4220, primary screen, OD600 | 16 h | inhibition, % (test concentration not listed) | 330,000 tested, 0.33% active | AID 1259311, 2017;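 active = z-score of -3 or lower and OD600 up to 0.18 on both plates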;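 note: plate controls were untreated cells for no effect and reference antibiotic for full effect; stock transfer was 100 nL into about 80 µL; one replicate is shown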
PrP 5UTR inh: inhibition of PrP 5' UTR reporter expression | cell-based PrP 5' UTR mRNA reporter, plate reader | inhibition, % (concentration not given with the values) | 340,000 tested, 0.35% active | AID 488862, 2010;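 active = every replicate at 50% or more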;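 note: 0 = median of the neutral control wells; tested in H4 reporter cells; numbers are from one replicate; inactives centre near -14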
Bead autofluor: counter-screen for toxin protease inhibitors: compound fluorescence; compound autofluorescence counterscreen, microsphere flow cytometry; hits give high values; fluorescence intensity (concentration not given with the values); 360,000 tested, 3.1% active;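 active = at least 3 SD above the mean of all compounds, about 16000 in these data; inconclusive = too few beads counted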;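 note: 100 nL of 1 mM stock went into each well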
Mtb hypoxia rep: PubChem AID 1159583; M. tuberculosis hypoxia-regulated fluorescent reporter, fluorescence; fluorescence inhibition, % (no concentration beside the values); 300,000 tested, 0.1% active;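 active = 35 to 45% if threefold the growth effect, above 45% if 1.5-fold the growth effect; inactive = the rest, general growth blockers included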;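 note: wells of about 50 µL received 100 nL stock; 0% = vehicle wells and 100% = reference inhibitor wells; whole bacteria with a GFP reporter of the hypoxia response; strong numbers were not always called active; many hits fall short of the cut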
Mtb hypoxia rep growth: second read-out of Mtb hypoxia rep, no call of its own (marks repeat the call); growth inhibition, %; measured here: M. tuberculosis growth (absorbance);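 0% = vehicle and 100% = reference antibiotic; read after six days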
* marks the source's active call; other numbers are inactive results; ? = inconclusive; . = not tested or not shown. Random draw from the library, and some 4% of all compounds hit somewhere here.

The first 3 compounds (preview)
SMILES | Sa ugtP lethal | BJeLR viability | Sa RN4220 lethal | PrP 5UTR inh | Bead autofluor | Mtb hypoxia rep | Mtb hypoxia rep growth
CC1(C)Cc2c(sc3nc(-c4ccccc4)n(N)c(=O)c23)CO1 | 4.0 | 2.0 | 0.8 | -31.1 | 2918 | . | .
CN(CC(=O)Nc1ccc(F)cc1)C(=O)COC(=O)CSc1ccc(F)cc1 | 1.3 | -1.1 | 2.1 | -47.3 | 8879 | 13.3 | 3.8
COC(=O)CSc1nnc(-c2ccc(S(=O)(=O)N3CCCC3)cc2)n1C | 8.7 | 1.8 | 3.9 | -25.0 | 6245 | 6.6 | 7.6

The list itself, repeating the preview:
SMILES | Sa ugtP lethal | BJeLR viability | Sa RN4220 lethal | PrP 5UTR inh | Bead autofluor | Mtb hypoxia rep | Mtb hypoxia rep growth
CC1(C)Cc2c(sc3nc(-c4ccccc4)n(N)c(=O)c23)CO1 | 4.0 | 2.0 | 0.8 | -31.1 | 2918 | . | .
CN(CC(=O)Nc1ccc(F)cc1)C(=O)COC(=O)CSc1ccc(F)cc1 | 1.3 | -1.1 | 2.1 | -47.3 | 8879 | 13.3 | 3.8
COC(=O)CSc1nnc(-c2ccc(S(=O)(=O)N3CCCC3)cc2)n1C | 8.7 | 1.8 | 3.9 | -25.0 | 6245 | 6.6 | 7.6
O=C(Oc1ccc(/C=N/NC(=O)c2ccccn2)cc1)c1ccc(Br)cc1 | . | 1.6 | . | -39.7 | 4417 | . | .
CCCS(=O)(=O)N1CCCC(C(=O)NCCN2CCC(Cc3ccccc3)CC2)C1 (centres undefined) | -3.2 | -0.8 | -16.6 | -23.0 | 3072 | 7.8 | 4.3
FC(F)(F)c1ccccc1NC(=S)N1CCc2ccccc2C1 | 3.8 | -4.9 | 0.6 | -5.7 | 4445 | 6.1 | 6.3
Cc1ccc(C2NC(=O)NC3=C2CCc2ccccc23)cc1 (centres undefined) | -12.1 | . | 8.6 | -52.2 | 8055 | 7.0 | 4.1
C=CCc1cccc(C=NNC(=O)C(=O)Nc2ccc(C)cc2)c1O | 5.3 | . | 3.3 | . | . | 6.5 | -1.1
COc1ccc(CCC(=O)N2CCN(S(=O)(=O)c3cccc(Cl)c3)CC2)cc1 | 1.7 | . | 4.7 | -23.3 | . | 9.2 | 1.5
O=c1c2ccccc2nc(-c2ccccc2)n1O | -2.0 | 3.5 | 2.8 | -9.3 | 3502 | 0.7 | -4.5
CSc1ccc(NC(=O)N2CCC(C(=O)c3ccc(F)cc3)CC2)cc1 | 2.5 | 4.7 | -1.4 | -14.3 | 5897 | 13.0 | 1.1
COc1ccc2[nH]cc(CCNC(=O)Cc3ccc(Cl)cc3)c2c1 | 0.0 | 5.3 | -1.3 | -18.5 | 2860 | -6.7 | -7.3
CC(=O)Nc1nc(SCCCc2ccccc2)n[nH]1 | 10.9 | -0.3 | -1.4 | -14.2 | 4183 | . | .
CC(CC(=O)Nc1ccc(F)cc1)=NNC(=O)c1ccccn1 | 4.2 | . | 6.1 | . | . | 15.5 | 8.5
O=C(Nc1cc(C(F)(F)F)ccc1N1CCOCC1)c1ccc[n+]([O-])c1 | 0.6 | -4.3 | 5.5 | -12.4 | 2235 | . | .
Cc1occc1-c1nnc(SCC(=O)Nc2ccc3c(c2)OCO3)n1CC1CCCO1 (centres undefined) | 3.9 | 7.7 | 4.9 | -3.7 | 4919 | . | .
COc1ccccc1C(=O)COC(=O)CNS(=O)(=O)c1ccc(C)cc1 | 3.9 | -0.6 | 0.5 | -9.7 | 5189 | 2.8 | 0.2
S=c1[nH]nc(C2CCCCC2)n1N=Cc1ccccc1Cl | -1.4 | . | 18.6 | . | . | 12.6 | 8.0
CCC(=O)c1ccc(OCC(=O)OCC(=O)c2cc(C)n(C3CC3)c2C)cc1 | 7.5 | -5.6 | 3.9 | -8.1 | 6233 | 8.7 | -12.4
CSc1ccc(CNC2CN3CCC2CC3)cc1 (centres undefined) | 9.4 | 0.4 | 6.0 | -25.5 | 10613 | 15.3 | 5.5
Cc1cccc(CCN(CC(=O)NC(C)(C)C)C(=O)c2csnn2)c1 | 2.6 | 3.0 | 2.8 | -14.6 | 2306 | 2.6 | 2.7
CCOc1cc(-c2noc(-c3cccnc3)n2)ccc1OC | 1.4 | 0.1 | 1.9 | -27.4 | 3786 | 4.1 | 6.5
CC12CCC(=O)N1C(C(=O)Nc1nnc(SCc3ccccc3)s1)CS2 (centres undefined) | -2.2 | 3.6 | 9.4 | -36.2 | 4387 | -0.7 | -2.5
CCOc1ccc(Cc2nc(-c3nonc3N)no2)cc1OCC | . | -3.2 | . | -6.3 | 2395 | . | .
NS(=O)(=O)c1ccc(NC(=O)CSc2nc3ccccc3c(=O)n2Cc2ccncc2)cc1 | 5.5 | . | 2.6 | -14.2 | 6329 | 9.3 | 3.9
O=C(NC1CCCCC1)c1noc2c1CCCCC2 | 4.7 | 2.6 | 1.4 | -99.8 | 22953* | 11.4 | 5.9
CS(=O)(=O)c1ccc(NC(=O)c2cc3c(cc2Cl)N2CCCCCC2=NS3(=O)=O)cc1 | 6.3 | . | 4.4 | -14.7 | 2921 | 8.1 | 3.9
COCCn1c(SCC(=O)Nc2nnc(C)s2)nnc1-c1ccco1 | -4.1 | 3.9 | 5.3 | -26.6 | 2767 | 0.7 | -9.4
COCCNC(=O)C(c1ccc(C)o1)N(C(=O)C(=O)NC1CCCCC1)c1ccc(F)cc1 (centres undefined) | -3.0 | 1.2 | 1.3 | -12.6 | 3352 | 2.5 | 4.6
Cc1cc(NS(=O)(=O)c2ccc(NC(=O)/C=C/c3ccccc3Cl)cc2)no1 | -9.1 | -6.6 | 3.5 | -19.1 | 5460 | 20.2 | 16.5
Cn1c(CCNC(=O)OC(C)(C)C)n[nH]c1=S | 9.4 | -0.7 | 14.6 | 0.7 | 3468 | . | .
COC(=O)CN1C(=O)C2C(c3ccc(C)o3)N3C(=O)CN(CC4CC4)C(=O)[C@@]3(C)C2C1=O (some centres undefined) | -10.9 | . | 2.7 | . | . | 3.1 | 7.6
CC(C)NC(=O)Cn1c(=O)cnc2ccccc21 | -3.9 | -1.1 | -3.0 | -12.2 | 1977 | -11.2 | 5.3
COc1ccc(S(=O)(=O)N2CCOCC2)cc1C(=O)Nc1cc(C)on1 | 1.0 | -7.0 | 1.9 | -1.2 | 5024 | . | .
O=C(NNc1c([N+](=O)[O-])cc(C(F)(F)F)cc1[N+](=O)[O-])c1ccco1 | 56.3 | 5.0 | 81.5 | -4.7 | 6168 | 9.0 | -2.4
CCc1nnc(NC(=O)C2CCC2)s1 | 8.5 | 3.4 | 9.9 | -11.6 | 3197 | 0.3 | -1.0
CSc1nc(N2CCOCC2)c2ccccc2n1 | 4.2 | . | 0.0 | -19.2 | 23367* | 9.1 | -0.2
O=C(Nc1cccc(Br)c1)c1ccc(OC2CSC2)cc1 | -9.9 | 3.9 | -4.5 | . | . | 1.5 | 4.4
COc1cc(C(=O)NN2C(=O)NC3(CCC(C)CC3)C2=O)ccc1OC(F)F (centres undefined) | -2.7 | . | -1.5 | -22.8 | 8829 | 5.1 | 5.6
Cc1nc(Sc2cccn2C)c(C(F)(F)F)c(=O)[nH]1 | -13.7 | -3.4 | -4.7 | -15.9 | ? | -18.3 | 5.5
Cc1cc(=O)oc2cc(OCC(=O)OC(C)C(=O)Nc3ccc(S(N)(=O)=O)cc3)ccc12 (centres undefined) | 3.4 | . | 3.4 | -33.5 | 2947 | 9.9 | 4.3
Cc1cc(S(=O)(=O)N2CCN(c3ccccc3F)CC2)ccc1-n1cnnn1 | -1.8 | -6.2 | -2.9 | -9.5 | 5211 | -1.2 | -4.6
O=C(O)c1oc2ccccc2c1CSc1ccccn1 | -2.1 | 1.2 | 6.9 | -17.9 | ? | 19.7 | 11.4
CCN1CCCC1CNC(=O)C(=O)Nc1ccccc1OC (centres undefined) | 11.0 | -11.7 | 5.2 | 1.4 | 8315 | 7.0 | 3.6
O=C(N/N=C/c1ccc2c(c1)OCO2)c1cc(-c2ccncc2)nc2ccccc12 | . | 15.8 | . | -23.1 | 2246 | . | .
O=C(CSc1nnc(-c2ccccc2)n1-c1ccc(Cl)cc1)N/N=C/c1ccco1 | . | -1.3 | . | -14.4 | 2247 | . | .
O=C(CCCSc1nc2ccccc2c(=O)[nH]1)c1ccc(F)cc1 | 0.4 | 7.6 | 6.7 | 30.3 | 3273 | 11.3 | 9.8
COc1ccccc1OCC(=O)Nc1ccc(S(=O)(=O)Nc2nccs2)cc1 | 5.3 | -0.3 | 1.2 | -20.4 | 3714 | 21.2 | 15.6
CCN(CC)CC(O)CN1C(=O)NC(C)(C)C1=O (centres undefined) | 0.5 | 6.4 | 2.5 | -5.9 | 3910 | 11.4 | 5.6
CCOC(=O)C1CCN(C(=O)Nc2ccc3oc(C)nc3c2)CC1 | 7.3 | -0.1 | 1.7 | -7.2 | 8324 | 8.9 | 1.8
Cc1ccc(-c2nnc(N3CCC(C)CC3)c3ccccc23)cc1C | -17.1 | 8.5 | -2.6 | -25.5 | 3541 | 21.5 | 18.2
Cc1ccccc1OCC(=O)OCC(=O)Nc1ccc(S(N)(=O)=O)cc1 | 9.1 | 8.0 | 1.5 | -17.1 | 2524 | 12.9 | 9.2
O=C(c1ccc(N2CCCCS2(=O)=O)cc1)N1CCN(c2ccccc2F)CC1 | 2.6 | 2.9 | 1.3 | -8.2 | 4098 | 3.2 | -6.0
Cc1cc(C)cc(N(CC(=O)NC2CCCCC2)C(=O)c2csnn2)c1 | -0.8 | -3.8 | 0.5 | -8.8 | 3538 | -3.0 | -1.8
Cc1c(C(=O)N2CCOCC2)c(S(=O)(=O)Nc2ccc(C(C)C)cc2)c(C)n1C | -2.6 | 2.4 | 4.5 | -3.5 | 4710 | 17.2 | 11.3
CNC(=S)Nc1cc(C)ccc1OC(F)F | 9.1 | 6.0 | 0.2 | 47.7 | 3885 | 3.0 | 0.2
Cc1cc(=O)n2[nH]c(C)c(-c3ccc(Cl)cc3)c2n1 | -7.8 | -5.0 | -1.8 | -20.0 | 7768 | 2.2 | 2.7
COCCN1CCN(C(=O)C2CCC(=O)N(Cc3ccc(Cl)cc3)C2)CC1 (centres undefined) | 9.8 | -6.9 | -0.5 | -4.2 | 6250 | 3.5 | -1.8
CC1C(=O)N2CCCc3cc(NC(=O)C(=O)NCc4ccc5c(c4)OCO5)cc1c32 (centres undefined) | -4.4 | -5.7 | -0.7 | -10.8 | ? | -5.1 | 4.4
CSCCC(NC(=O)c1ccccc1Cl)C(=O)NCC(c1ccco1)N1CCCCC1 (centres undefined) | 3.5 | -2.7 | 3.3 | -10.9 | 5656 | 8.7 | 1.0

(more compounds)
SMILES | Sa ugtP lethal | BJeLR viability | Sa RN4220 lethal | PrP 5UTR inh | Bead autofluor | Mtb hypoxia rep | Mtb hypoxia rep growth
O=C(O)c1ccc(Nc2nc3ccccc3nc2NS(=O)(=O)c2ccc(F)cc2)cc1 | -6.9 | 8.7 | 6.9 | -7.5 | 5665 | -8.0 | -2.1
Cc1ccc(S(=O)(=O)NN2C(=O)/C(=C/c3cccs3)SC2=S)cc1 | 26.1 | -12.8 | 59.6 | -12.6 | 3370 | 4.7 | 2.6
NC(=O)c1cc(S(=O)(=O)NCc2ccc(F)cc2)cs1 | 4.9 | 7.9 | 2.1 | -21.1 | 8019 | 8.4 | 3.4
COC(=O)c1ccc(C(=O)OC)c(NC(=O)CN(C)Cc2cccc(Cl)c2Cl)c1 | -13.0 | -0.3 | 3.1 | -13.6 | 10849 | 5.6 | -0.3
Cc1ccc(-c2ccc(C3C4C=CCC[C@@]4(C)C(=O)N3Cc3ccccc3)c(F)c2)cc1 (some centres undefined) | 81.2* | . | -0.3 | . | . | 3.7 | 6.7
CCN(CC)S(=O)(=O)c1ccc(N2CCOCC2)c(NC(=O)COc2ccc(Cl)cc2)c1 | -0.3 | -16.4 | 1.4 | -9.0 | 4088 | -3.4 | -12.1
O=C(CCc1nc(-c2ccc(Cl)cc2)no1)NC1CCCC1 | 7.0 | -0.6 | 4.9 | -8.5 | 4923 | 6.5 | 9.8
Cc1cc(/C=C2/C(=N)N3C(=NC2=O)SN=C3S(C)(=O)=O)c(C)n1-c1ccc(F)cc1 | 11.6 | 1.1 | 15.2 | -13.4 | 2357 | 6.5 | 8.1
O=C(Nc1cccc(Cl)c1)N1CCc2ccccc2C1 | -12.1 | -17.3 | -2.8 | -51.8 | . | 2.6 | 19.4
